Source: PubChem (several laboratories)
LANA-H2A inh: blocks KSHV LANA binding to histone H2A/H2B; Q9QR71; cell-free LANA-H2A/H2B peptide, fluorescence polarization; inhibition, % (test concentration not listed); actives 0.6% (n = 320,000); AID 2629; in the data active = inhibition mostly above about 10%, no sharp cut-off; inactive = mostly below about 6.7%;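 note: stock transfer was 7.5 nL into about 10 µL; 0% = median of vehicle wells and 100% = median of positive control wells; one replicate is shown; the record names a cut of 25% in any replicate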
AF4-AF9 inh: blocks AF4 peptide binding to human AF9; inhibition, % at 10 µM; actives 0.47% (n = 350,000); AlphaScreen, biotin-AF4 peptide binding to FLAG-AF9; AID 651704;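 active = every replicate reaching a set inhibition limit, whatever the replicate mean, cut at about 25% in these data; inconclusive = mean inhibition reaches that limit but some replicates miss it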;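 note: 0% = plate neutral control median and 100% = total signal loss; the record names both 10 and 1 µM as test concentration; the first replicate is given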
Target sequence (P42568 whole entry, looked up): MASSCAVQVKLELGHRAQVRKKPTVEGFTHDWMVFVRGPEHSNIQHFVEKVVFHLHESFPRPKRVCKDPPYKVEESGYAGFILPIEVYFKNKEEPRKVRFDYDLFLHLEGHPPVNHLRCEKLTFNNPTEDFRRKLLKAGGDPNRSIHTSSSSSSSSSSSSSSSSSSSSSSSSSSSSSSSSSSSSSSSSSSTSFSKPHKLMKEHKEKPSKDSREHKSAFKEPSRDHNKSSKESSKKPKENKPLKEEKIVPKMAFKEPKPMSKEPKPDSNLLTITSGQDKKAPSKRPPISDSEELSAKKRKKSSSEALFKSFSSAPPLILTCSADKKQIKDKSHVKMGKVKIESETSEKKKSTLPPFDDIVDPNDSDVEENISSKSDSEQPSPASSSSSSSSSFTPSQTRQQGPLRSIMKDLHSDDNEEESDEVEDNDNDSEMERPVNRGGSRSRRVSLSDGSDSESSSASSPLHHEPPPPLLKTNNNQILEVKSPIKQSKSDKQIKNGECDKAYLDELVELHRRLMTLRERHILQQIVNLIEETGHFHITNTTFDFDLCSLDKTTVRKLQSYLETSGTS
RanGTP-Impb inh: inhibitors of RanGTP-importin-beta interaction, primary screen, biochemical, FRET, CFP-Ran, YFP-importin-beta, homogeneous; inhibition, % (test concentration not listed); cell-free CFP-Ran/YFP-importin-beta FRET ratio; actives 1.1% (n = 300,000);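 active = most replicates above 15%; inconclusive = exactly half above 15%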;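 note: 0% = DMSO wells and 100% = Ran loaded with GDP instead of GTP; wells of about 40 µL received 100 nL stock; the first replicate is given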
Bfl-1 A1 inh: inhibitors of the anti-apoptotic protein A1, read as caspase activation; MEF A1-2A-BIM cells, Caspase-Glo 3/7 luminescence, 3 h; percent of clofoctol response, vehicle zero; caspase activation, % (no concentration beside the values); actives 0.066% (n = 330,000); AID 2462;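 active = over half of replicate activation scores above 10%, or exactly half above 10 with the replicate mean above 10; inconclusive = replicate mean below 10 yet half the replicates above 10; inactive = over half of replicates below 10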;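 note: wells of about 30 µL received 50 nL stock; many hits fall short of the cut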
Beta apoptosis: blocks beta cell apoptosis. INS-1E cytokine-induced death, ATP luminescence, 48 h; percent of positive-control rescue, neutral wells zero. protection from apoptosis, % (no concentration beside the values). actives 0.8% (n = 300,000). AID 435005;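 active = all replicates at 75% or more, or half of them and the mean; inconclusive = half reach 75% but not the mean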;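 note: 0% = cytokine-treated negative control wells and 100% = positive control rescue; higher means more ATP so stronger rescue from cytokine killing; wells of about 40 µL received 100 nL stock; the first replicate is given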
T cruzi repl: T. cruzi replication inhibition | T. cruzi beta-gal in NIH3T3, luminescence, 90 h | inhibition, % (test concentration not listed) | actives 1.4% (n = 300,000);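 active = mean inhibition across valid replicates above about 55%, limit read from the data; inconclusive = mean below that limit but half or more replicates reach it; inactive = mean below it, under half of replicates reach it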;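 note: signal also drops with host cell toxicity which is not excluded here; 0% = plate median of DMSO wells and 100% = zero luminescence signal; higher percent means less beta-gal luminescence so fewer parasites; stock transfer was 50 nL into about 50 µL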
Vif TR-FRET: HIV-1 Vif–A3G interaction blockers – biochemical, TR-FRET, GST-Vif 1-94, biotin-A3G peptide, dose response retest, primary screen (AID 1117319). TR-FRET GST-Vif / biotin-A3G peptide binding; higher % means a stronger effect; test concentration not given here; strong numbers were not always called active. inhibition, %, or IC50 in µM where a hit was titrated. actives 0.57% (n = 260,000);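 active = above the screen mean plus three standard deviations and confirmed in dose response; inconclusive = results disagree or hit not tested in dose response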;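 note: Vif residues 1-94 fused to GST binding biotinylated APOBEC3G peptide 110-148; 0% = full assay without inhibitor and 100% = GST in place of GST-Vif; retest series ran down from 100 µM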
Calb FLC: affects C. albicans growth with fluconazole | AID 1979 | C. albicans CaCi-2 (fluconazole-resistant clinical isolate) + fluconazole, Alamar Blue growth, 48 h | actives 0.57% (n = 300,000) | growth inhibition, % (test concentration not listed);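 active = most replicates above 75%; inconclusive = exactly half above 75%; inactive = most below 75%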;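 note: all wells also contain fluconazole at 8 µg/ml as a sub-toxic cotreatment; 0% = median of DMSO wells and 100% = median of geldanamycin control wells; wells of about 8 µL received 7.5 nL stock; the first replicate is given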
Active calls of the source: *; u = inconclusive; x = no result given.

Every second line gives: RanGTP-Impb inh	Vif TR-FRET	Beta apoptosis	Calb FLC	T cruzi repl	Bfl-1 A1 inh	AF4-AF9 inh	LANA-H2A inh
COCc1[nH][nH]c(=O)c1C=NCC(=O)OC
→ -0.9	x	-17	7	-22	0.4	-1.9	1.5
Nc1ccc(Oc2cccc(Oc3ccc(N)cc3)c2)cc1
→ 0.0	-4%	6	116*	-12	0.0	-1.6	9.9
CCOC(=O)C1CCN(C(=O)CN(c2cc(Cl)ccc2OC)S(=O)(=O)c2ccccc2)CC1
→ -0.9	2%	x	7	22	0.6	-0.2	2.4
CCOC(=O)c1sc(=S)n(C)c1C
→ 4.0	-2%	3	11	-9	0.4	x	-2.3
CCCNS(=O)(=O)c1cccc2cccnc12
→ 4.3	-4%	x	5	-2	-0.4	-0.3	-3.3
NC(=O)/C(=C/c1ccco1)NC(=O)/C=C/c1ccccc1
→ -2.8	28%	-9	u	6	-0.7	x	-0.3
CCOc1ccc(-c2noc(-c3cccnc3)n2)cc1OC
→ 1.3	8%	0	38	-8	-0.7	x	-1.4
COc1cc(NCCC(=O)c2cccs2)c(OC)cc1Cl
→ 6.3	-4%	-3	6	14	0.5	23	-2.5
COc1ccc(Cl)cc1NC(=O)CCN1C(=O)C2CC=CCC2C1=O (stereo not drawn)
→ -2.0	x	4	4	-4	0.4	-6.5	-4.0
Cc1cc(NC(=O)CCN2CCN(C)CC2)ccc1Br
→ 1.1	1%	9	-17	13	0.5	3.5	-3.2
O=C(C1CCN(S(=O)(=O)c2cnc[nH]2)CC1)N1CCc2ccccc2C1
→ 0.9	30%	1	-5	-9	0.6	x	-6.0
CCCn1c(SCC(=O)N2CCc3ccccc3C2)nc(O)cc1=O
→ x	x	3	x	x	0.1	-5.7	-1.9
Cn1cc(SCC(=O)NC2CCCC2)c2ccccc21
→ 3.2	x	-3	2	-10	0.1	-1.5	-3.8
CCOC(=O)/C(C#N)=C(\O)c1ccc(NC(=O)c2ccc([N+](=O)[O-])cc2)cc1
→ 3.9	12%	0	12	3	-0.3	x	-0.7
Cc1cccc(NS(=O)(=O)c2cccc(C(=O)NCCCN3CCCC3=O)c2)c1
→ 1.3	-6%	2	1	2	0.0	-0.5	1.5
COc1ccc(-c2cc(C(=O)N(C)Cc3ccccc3)c3ccccc3n2)cc1
→ -2.6	x	3	0	17	-0.8	1.9	1.4
CCc1noc(C)c1C(=O)NNC(=O)COc1cc(C)ccc1C
→ x	1%	-5	x	x	2.8	-8.7	1.0
CC(C)C(=O)Nc1nnc(SCC(=O)NC2CC2)s1
→ 1.3	-7%	-4	2	-4	0.6	x	-0.2
CCOC(=O)c1c(C)[nH]c(C)c1C(=O)COC(=O)Cc1ccc(OC)c(OC)c1
→ x	0%	0	x	x	0.6	4.0	-2.2
O=C(CCc1ccccc1)Nc1cccnc1
→ 8.1	-11%	-3	3	-6	-2.7	-1.3	-0.8
CC1=C(C(=O)Nc2ccccn2)C(c2ccc(N(C)C)cc2)n2ncnc2N1 (stereo not drawn)
→ -1.1	0%	1	-5	-11	0.1	1.1	1.7
Cc1ccc(C(=O)c2c(NC(=O)c3ccccc3C)sc(C)c2C)cc1
→ u	13%	-2	30	31	0.2	x	0.7
CN(C)CCNC(=O)CNC(=S)N(CCCN1CCOCC1)Cc1cccs1
→ -0.2	10%	-1	-4	-23	-0.3	0.3	2.8
CC(=O)N1CCC(N(CCN2CCOCC2)C(=S)Nc2ccc(C)c(C)c2)CC1
→ 5.2	0%	-1	-2	1	0.3	1.6	2.4
CC1=C(C)CC(C(=O)c2ccc(C)cc2)C(C(=O)O)C1 (stereo not drawn)
→ -2.8	-2%	-3	13	1	0.1	x	-0.5
CC(C)c1ccc(C(C(=O)NC2CCCC2)N(C(=O)CNC(=O)c2ccco2)c2cccnc2)cc1 (stereo not drawn)
→ 2.2	-1%	-7	-9	-6	1.5	x	-2.5
COC(=O)c1ccc(-c2nc3cc(N)ccc3o2)cc1
→ u	0%	-2	18	-6	-6.9	x	-2.1
CCn1cc[n+](C)c1P(c1ccccc1)c1ccccc1
→ x	4%	14	-29	23	0.5	-11	-5.6
Nc1c(C(=O)CSc2nnc(Cc3ccccc3)o2)c(=O)[nH]c(=O)n1C1CC1
→ x	-17%	-4	x	x	0.0	1.4	-0.2
CN(CC(=O)Nc1cccc(F)c1)C(=O)c1ccc(OCc2cn3ccccc3n2)cc1
→ x	x	-2	x	x	-1.4	-1.0	-1.7
Cc1ccc(Nc2nnc(SCc3cc(=O)n4cc(C)ccc4n3)s2)cc1
→ -4.6	30%	-3	-4	9	0.3	-2.9	-3.0
CCOc1ccc(-n2c(N)c(-c3nc4ccccc4n3C)c3nc4ccccc4nc32)cc1
→ 0.9	x	5	2	-12	1.5	x	1.5
Cc1ccc(S(C)(=O)=O)cc1C(=O)Nc1ccc(S(=O)(=O)Nc2nccs2)cc1
→ x	x	-7	x	x	-0.1	-1.3	2.9
NC1=NN=C(N2N=C(c3ccco3)CC2(O)C(F)(F)F)n2ncnc2C1 (stereo not drawn)
→ 0.0	30%	-6	30	-14	0.7	-3.6	-0.3
Cc1onc(C(=O)N2CCC(C(N)=O)CC2)c1-c1ccccc1Cl
→ 5.3	-6%	-5	1	-6	1.7	x	1.0
COc1ccc(OC)c(NC(=O)c2cc(-c3c(C)cc(C)cc3O)n[nH]2)c1
→ -3.0	-3%	-25	-1	-11	-0.2	-0.3	-0.1
CSc1nc2ccccc2c(=O)n1N
→ -1.9	27%	0	-5	-8	-0.4	x	2.5
Cc1cc(=O)oc2c(C)c(OCC(=O)NCCN3CCOCC3)ccc12
→ -0.2	0%	-3	-9	-1	1.2	1.2	1.7
OC1CCCN(Cc2ccccc2)C1 (stereo not drawn)
→ 2.5	-1%	-15	u	5	1.1	-56	6.2
O=C(CNCCN1CCOCC1)Nc1ccccc1Sc1ccccc1
→ -1.0	x	1	-13	16	0.1	1.4	-0.8
CNNC(=S)Nc1ccc(Cl)cc1
→ 2.5	0%	2	-10	5	0.5	x	-4.2
COc1ccccc1N1CCN(C(=O)c2cc3cc(Cl)ccc3[nH]2)CC1
→ 2.1	x	0	114*	-10	-0.5	-1.2	1.1
CC1CCCCC1NC(=O)C1CCN(C(=O)NC2CCCCC2)CC1 (stereo not drawn)
→ 6.7	2%	0	27	2	1.5	x	-3.3
Cc1[nH]c(=O)[nH]c(=O)c1CSCC(=O)OCC(=O)c1ccc(Br)cc1
→ -1.8	-31%	-8	-7	-19	0.1	-0.5	-0.9
COC(=O)c1sc(-c2ccc(Cl)cc2)cc1NC(=O)COCC(=O)O
→ 0.8	-18%	-5	8	-7	0.4	0.1	-5.6
Cc1cc(C)nc(SCC(=O)N/N=C\c2sccc2C)n1
→ -3.8	-1%	-3	-2	-18	1.3	x	4.9
CCCCN(C)S(=O)(=O)c1cc(Br)cc2c1N(C(=O)C1CC1)CC2
→ 4.1	1%	x	9	34	0.1	x	-1.9
Cc1cc(C)cc(Oc2ccc(-c3nnc(-c4ccccc4)o3)cc2[N+](=O)[O-])c1
→ -1.1	x	x	-15	-2	-0.5	-0.1	8.0
CC(/C=C/c1ccccc1)=N\NC(=O)c1ccncc1
→ -0.2	3%	-8	-3	-5	0.7	-7.1	1.2
Fc1cccc(-n2ncc(-c3nnnn3-c3ccccc3)c2C(F)(F)F)c1
→ -1.5	u	3	44	-1	-0.4	x	1.4
COc1ccc(C(C(=O)NCC2CCCO2)N(C(=O)CNC(=O)c2cccs2)c2ccc(C(C)=O)cc2)cc1OC (stereo not drawn)
→ u	8%	2	3	14	0.1	-1.0	4.9
Cc1ccnc(NS(=O)(=O)c2ccc(NC(=O)C3C4C=CC(C4)C3C(=O)O)cc2)n1 (stereo not drawn)
→ 1.3	u	-3	-2	-3	0.7	-3.0	0.2
c1ccc(-c2csc3ncnc(NCCCN4CCOCC4)c23)cc1
→ 0.7	-2%	-13	1	7	0.2	x	0.3
CCC(C)C1=CC(=Nc2c(C)n(C)n(-c3ccccc3)c2=O)C=C(C(C)CC)C1=O (stereo not drawn)
→ 1.6	10%	-2	10	21	-0.6	15	0.3
CC(=O)c1cccc(CN2CCN(CCc3ccccc3)C(CCO)C2)c1 (stereo not drawn)
→ 3.1	x	-2	-15	11	3.3	-0.5	0.1
O=C1CNC(=O)N1CC(=O)N1CCCc2ccccc21
→ 2.5	10%	1	u	-11	0.7	x	1.9
O=C(CNC(=O)c1ccc(S(=O)(=O)N2CCCC2)cc1)N/N=C/c1ccc(Cl)cc1Cl
→ 6.6	x	-15	7	7	1.4	4.2	2.1
COCCCNC(=S)NC1CCCCC1
→ 3.6	-4%	-10	4	-15	0.8	x	5.4
CN(C)CCSc1nc(-c2ccccc2)nc2c1COC(C)(C)C2
→ 3.1	30%	-10	-34	24	-0.7	x	4.1
NC(=S)Nc1cccc2cn[nH]c12
→ -0.1	x	4	35	-13	0.0	-8.8	12

More entries follow:
Every second line gives: RanGTP-Impb inh	Vif TR-FRET	Beta apoptosis	Calb FLC	T cruzi repl	Bfl-1 A1 inh	AF4-AF9 inh	LANA-H2A inh
COCCCN1CN(S(=O)(=O)c2ccc(C)cc2C)c2nc3ccccc3nc21
→ 4.2	x	-7	24	11	1.3	7.3	1.5
Cc1cc(N2CCN(C)CC2)ccc1NC(=O)c1ccc(-c2ccc(Cl)cc2)o1
→ 2.0	-2%	53	17	59*	0.1	-18	-4.2
O=C(CN1CCN(S(=O)(=O)N2CCOCC2)CC1)Nc1cc(Cl)ccc1Cl
→ u	x	6	11	-7	-0.7	4.9	1.9
COc1cccc(C(=O)Nc2ccc3[nH]ncc3c2)c1
→ -1.0	2%	4	0	-1	-0.2	-3.6	1.4
Cc1ccc(SCC(=O)OCC(=O)NC2CCCCCC2)cc1
→ -0.2	1%	-11	-13	3	-0.7	-16	2.8
CC1CCCN(C2(O)C(=O)Nc3ccc(Br)cc32)C1 (stereo not drawn)
→ -0.9	x	-3	8	-6	0.7	5.4	-4.9
Cc1cccc(C)c1NC(=O)c1c(-c2ccccc2)noc1C
→ -0.3	20%	-2	5	-9	0.9	x	9.8
